KCNQ2 pot – potentiators of rat KCNQ2 potassium channel | Potassium voltage-gated channel subfamily KQT member 2 (Rattus norvegicus), O88943 | CHO-K1 KCNQ2, FluxOR thallium flux fluorescence; hits give high values | B-score at 10 µM | 310,000 compounds, 0.54% hits | AID 2239, 2010;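 active = fluorescence ratio B-score at least 3 SD of library B-scores, with initial fluorescence B-score within 3 SD, cut at about 5.3 in these data; same plate scores as AID 2156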;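 note: B-score of peak minus minimum over baseline fluorescence ratio after K+ and Tl+ stimulus; positive B-score means potentiation of KCNQ2 with more thallium influx and brighter signal; only the inactives scoring about 0 or higher are listed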
Target sequence (O88943 whole entry, looked up): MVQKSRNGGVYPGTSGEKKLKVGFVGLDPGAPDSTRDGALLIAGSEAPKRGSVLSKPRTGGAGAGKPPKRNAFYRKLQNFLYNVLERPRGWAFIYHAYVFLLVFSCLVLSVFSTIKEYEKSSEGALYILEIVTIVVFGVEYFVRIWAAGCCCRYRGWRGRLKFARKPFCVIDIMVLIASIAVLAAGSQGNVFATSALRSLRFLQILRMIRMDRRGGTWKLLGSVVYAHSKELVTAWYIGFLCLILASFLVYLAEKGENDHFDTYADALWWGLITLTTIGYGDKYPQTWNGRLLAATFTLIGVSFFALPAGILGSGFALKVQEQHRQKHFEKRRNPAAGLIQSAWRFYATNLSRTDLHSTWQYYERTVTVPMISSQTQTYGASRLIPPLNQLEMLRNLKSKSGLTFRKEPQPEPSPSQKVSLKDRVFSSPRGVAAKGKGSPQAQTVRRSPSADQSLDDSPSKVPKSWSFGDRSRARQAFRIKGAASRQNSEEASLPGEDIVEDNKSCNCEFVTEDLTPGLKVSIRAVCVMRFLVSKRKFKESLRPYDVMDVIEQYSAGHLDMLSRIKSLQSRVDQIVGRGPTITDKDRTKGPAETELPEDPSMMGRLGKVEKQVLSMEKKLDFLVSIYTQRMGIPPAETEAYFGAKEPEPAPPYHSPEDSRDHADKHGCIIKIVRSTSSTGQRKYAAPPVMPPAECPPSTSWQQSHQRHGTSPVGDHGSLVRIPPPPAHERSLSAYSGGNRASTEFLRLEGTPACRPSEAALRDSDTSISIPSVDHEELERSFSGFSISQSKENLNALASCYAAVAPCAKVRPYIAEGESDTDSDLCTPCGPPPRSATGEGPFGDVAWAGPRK
KCNQ2 pot baseline – second read-out of KCNQ2 pot, no call of its own (marks repeat the call); B-score; compound at 10 µM; measured here: initial fluorescence intensity artifact check;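 brightness before thallium and not channel activity; 0 = typical well and far values either way flag optical interference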
Active calls of the source: *. Some of the compounds tested; count on the stated rates, not on these rows.

SMILES	KCNQ2 pot	KCNQ2 pot baseline
O=C(CCN1C(=O)C2CC=C(Cl)CC2C1=O)NC1CCCCC1 (stereo unspecified)	0.91	-0.97
CSc1cccc2sc(NC(=O)C3=COCCO3)nc12	0.6	0.27
Nc1nonc1C(=O)N/N=C/c1ccc(-c2cccc([N+](=O)[O-])c2)o1	0.71	-1.32
O=C(NC1CCCC1)c1ccc(S(=O)(=O)N2CCOCC2)cc1	0.5	0.18
CC1CN(CCc2ccccc2)c2nc3c(c(=O)[nH]c(=O)n3C)n2C1 (stereo unspecified)	0.97	0.41
Cc1ccc(C)c(CSc2nnc(-c3cccnc3)n2N)c1	0.58	1.04
Cc1ccc2c(c1)N(CC(=O)NCCCN1CCCCC1)C(=O)c1cccnc1O2	2.33	4.05
O=C(O)c1cnn(-c2nc(-c3ccc(Cl)c(Cl)c3)cs2)c1C(F)(F)F	3.64	1.98
Cc1nn(C)c(C(=O)N2CCN(C(=O)c3ccco3)CC2)c1Br	2.42	-0.57
O=C(CC(=O)c1cccc([N+](=O)[O-])c1)Nc1ccccc1Cl	1.31	-0.03
COc1ccccc1-c1nnc(SCC(=O)NC2CCS(=O)(=O)C2)n1N (stereo unspecified)	0.65	2.03
COc1ccc(N(CC(=O)NC2CCCC2)C(=O)CCC(=O)Nc2cc(C)on2)cc1OC	2.06	-0.06
CC(C)Oc1cccc(C(=O)C2CCCN(C(=O)c3cc(C(F)(F)F)[nH]n3)C2)c1 (stereo unspecified)	1.18	-0.42
CC(Oc1cccc(Cl)c1)C(=O)N(C)CC(=O)Nc1ccc(N2CCOCC2)cc1 (stereo unspecified)	1.58	-0.67
O=C(NCCCNCCCNC(=O)c1ccccn1)c1ccccn1	1.37	0.16
CC(Oc1ccc2c3c(c(=O)oc2c1)CCCC3)C(=O)NCC(O)c1ccccc1 (stereo unspecified)	2.64	-0.44
CN(C)c1ccc(/C=N/NC(=O)c2nonc2N)cc1[N+](=O)[O-]	0.92	0.92
COc1ccc(N2CCN(CC(O)COc3ccccc3[N+](=O)[O-])CC2)cc1 (stereo unspecified)	0.88	-0.68
O=C(O)c1ccc(N2C(=O)c3cccc4cccc(c34)C2=O)cc1	0.52	0.16
COCCCNC(=O)COc1cc(C)c(Cl)c(C)c1	0.33	-0.56
CN(C(=O)c1ccc2c(c1)OCO2)C1CCCCC1	0.08	-0.7
COc1cccc(CNC2CCCc3ccccc32)c1OC (stereo unspecified)	0.96	0.11
CC(=O)Nc1ccc(S(=O)(=O)N(Cc2ccccc2)C(C)C)cc1	0.64	0.82
CCc1nnc(NC(=O)CSc2nc3c(c(=O)n2C)SC(C)C3)s1 (stereo unspecified)	0.85	0.89
COc1ccccc1C(=O)Nc1ccc2c(c1)CN(C(=O)CSC)CC2	0.07	-1.39
CCn1cc(S(=O)(=O)NCCc2ccccc2OC)cn1	0.05	-2.89
Cc1ccccc1OCC(=O)N=Nc1c(O)n(C)c2ccccc12	2.88	2.13
COc1ccc(Cc2nc(-c3ccc(Br)o3)no2)cc1OC	0.86	-2.51
Cn1c(SCC(=O)Nc2ccccc2F)nnc1-c1cccnc1	2.11	-0.63
O=C(NNC(=O)c1cccs1)Nc1cccc(Cl)c1	0.96	-0.05
Cn1c(/C(C#N)=C/c2ccc(O)cc2)nc2ccccc21	0.16	-1.46
CC(C)(C)c1nc(Sc2ccc([N+](=O)[O-])cn2)n[nH]1	0.05	-0.92
Cc1ccc(NC(=O)CSc2nc(O)cc(=O)n2-c2ccc(C)cc2)cc1	1.48	-0.78
CC(=O)Nc1cccc(C(=O)OCCCOc2ccc(F)cc2)c1	0.02	1.45
N/C(=N/OC(=O)c1ccc(Cl)cc1)c1ncc([N+](=O)[O-])s1	0.02	0.84
O=C(O)c1cccc2c1/C(=N/O)c1ccccc1-2	1.1	1.17
CC(=O)N1CCN(S(=O)(=O)c2cccc(C(=O)NC3CCC(C)CC3)c2)CC1 (stereo unspecified)	0.17	-1.14
Cc1ccc(NC(=O)CCSc2ccccn2)cc1	0.91	-0.05
O=C(NCCO)Nc1ccc(Cl)cc1	0.77	-1.11
CCn1cc(/C=N\NC(=O)Cc2ccc(Cl)cc2)cn1	0.97	-0.63

2 neighbouring records already listed, for reference:
SMILES	KCNQ2 pot	KCNQ2 pot baseline
CC(=O)N1CCN(S(=O)(=O)c2cccc(C(=O)NC3CCC(C)CC3)c2)CC1 (stereo unspecified)	0.17	-1.14
Cc1ccc(NC(=O)CCSc2ccccn2)cc1	0.91	-0.05

Additional compounds.
SMILES	KCNQ2 pot	KCNQ2 pot baseline
CCCCn1c(N)c(N(CCOC)C(=O)c2nn(CC)c(=O)c3ccccc23)c(=O)[nH]c1=O	0.19	0.98
Cc1cccc(C)c1NC(=O)c1ccc(-n2cncn2)nc1	1.66	0.85
COc1ccc(C2CC(C(F)(F)F)n3ncc(C(=O)Nc4c(C)n(C)n(-c5ccccc5)c4=O)c3N2)cc1 (stereo unspecified)	1.31	0.83
Cc1cc(NS(=O)(=O)c2cc(Cl)sc2Cl)no1	0.23	-1.51
CC1CN(C(c2ccco2)c2sc3ncnn3c2O)CC(C)O1 (stereo unspecified)	0.41	-0.01
CC(Oc1ccccc1)C(=O)NCc1cccnc1 (stereo unspecified)	0.58	-0.05
COC(=O)c1cc2oc(C)cc2n1CC(=O)N(C)c1ccccc1	0.49	0.12
COc1ccc(-n2c(SCC(N)=O)nnc2-c2cccnc2)cc1	1.16	-0.32
COC(=O)[C@@]12CCCCN1[C@H](c1ccc(-c3ccc(F)cc3)cc1)[C@@H]1C(=O)N(C)C(=O)[C@@H]12	1.52	0.64
O=C(O)C1CCCN(S(=O)(=O)c2ccc(-c3ccc(=O)[nH]n3)s2)C1 (stereo unspecified)	0.59	0.06
N#Cc1cc2c(nc1SCc1cccnc1)CCCC2	0.86	-0.16
O=C(N/N=C/c1ccoc1)c1ccc(Cl)cc1	3.9	-0.18
CCc1ccccc1NC(=O)NC1CCCCC1	0.2	0.61
Cc1ccnc(SC2CC(=O)N(c3ccc(Br)cc3)C2=O)n1 (stereo unspecified)	1.41	1.43
O=C(NCc1ccco1)c1cccc(NS(=O)(=O)c2cccc(F)c2)c1	1.82	-1.52
Cc1cccc(-c2nc(CS(=O)CC(=O)NC3CCCC(C)C3C)c(C)o2)c1 (stereo unspecified)	1.75	0.97
CCC1Sc2ccccc2N(CC(=O)NCCC(C)C)C1=O (stereo unspecified)	1.87	1.88
Cc1nn(-c2ccccc2)c2nc(C(Cl)(Cl)Cl)[nH]c(=O)c12	5.06	0.01
Cc1cccc(C(=O)NNC(=O)c2ccc(O)cc2)c1	1.39	1.68
Cc1ccc(C(=O)CCC(=O)Nc2ccccc2C)cc1C	0.43	0.31
COc1ccc(NC(=O)C2(S(=O)(=O)c3ccc(C)cc3)CC2)cc1OC	0.72	-1.11
CC12CCC(C(=O)Nc3ccccc3N3CCOCC3)(CC1=O)C2(C)C (stereo unspecified)	0.35	0.3
COc1ccc(C2=NOC(C(=O)Nc3cccc(O)c3)C2)cc1 (stereo unspecified)	0.37	-2.96
O=C(Cn1cnc2ccccc2c1=O)Nc1nnc(SCc2ccc(Cl)cc2)s1	1.54	-0.13
[O-]c1c[n+](-c2ccc(-[n+]3cc([O-])on3)cc2)no1	1.79	0
CCOC(=O)CNC(=O)c1ccc(Cl)s1	0.17	0.03
CCNc1nc(NCC)nc(Oc2ccc(N)cc2)n1	1.37	-0.1
CCc1ccc(N(CC(=O)NC)S(C)(=O)=O)cc1	1.31	1.55
O=C(CSc1nccn1Cc1ccco1)Nc1ccc(F)cc1	0.6	-3.23
Cc1cc([N+](=O)[O-])nn1CC(=O)NCc1ccccc1	0.57	-0.61
O=C(CCCc1c[nH]c2ccccc12)N1CCN(S(=O)(=O)c2cccs2)CC1	0.05	-0.42
CCc1ccc(NC(=O)C(=O)NCCOc2ccccc2Cl)cc1	0.87	-1.24
CCCCCCCCC1CC(C(=O)Nc2ccccc2)C(=O)O1 (stereo unspecified)	1.7	-0.68
Cc1c(Cl)cccc1NC(=O)C1CCN(c2cnccn2)CC1	1.44	-0.85
CCN(CC)S(=O)(=O)c1ccc(N2CCOCC2)c(C(=O)O)c1	1.71	-0.83
COc1cc2c(cc1NC(=O)CSc1ccc(Cl)cc1)oc1ccccc12	0.38	2.12
COc1ccc(N=CC2=C(O)c3ccccc3C2=O)cc1	0.94	-1.28
CCCCCNC(=O)CSC1=N/C(=C\c2ccc(Cl)c(Cl)c2)C(=O)N1CC	0.02	-2.59
CCCCN(C(=O)CCCc1nc2ccccc2c(=O)[nH]1)c1c(N)n(CCCC)c(=O)[nH]c1=O	1.24	-0.19
Cc1ccc(S(=O)(=O)N2CCN(C(=O)COC(=O)CNC(=O)c3ccccc3)CC2)c(C)c1	1.19	1.66

Reformatted: results already given
SMILES | KCNQ2 pot | KCNQ2 pot baseline
CCCCN(C(=O)CCCc1nc2ccccc2c(=O)[nH]1)c1c(N)n(CCCC)c(=O)[nH]c1=O | 1.24 | -0.19
CC1CN(C(c2ccco2)c2sc3ncnn3c2O)CC(C)O1 (stereo unspecified) | 0.41 | -0.01
O=C(N/N=C/c1ccoc1)c1ccc(Cl)cc1 | 3.9 | -0.18
Cc1nn(C)c(C(=O)N2CCN(C(=O)c3ccco3)CC2)c1Br | 2.42 | -0.57

Additional structures
SMILES	KCNQ2 pot	KCNQ2 pot baseline
CCS(=O)(=O)Nc1cccc(-c2cn3c(n2)SCC3)c1	0.09	-0.27
Cc1cccc(C)c1NC(=O)CN(C)CC(=O)Nc1sc2c(c1C(N)=O)CCC2	1.35	-0.22
CC(NS(=O)(=O)/C=C/c1ccccc1)C(=O)O (stereo unspecified)	0.08	0.85
CCCCC(=O)Nc1cccc(-c2nc3ncccc3o2)c1C	0.78	-0.67
CC(=O)c1cccc(OCc2cc(C(=O)N3CCSCC3)no2)c1	3.87	-0.04
CN(C)CCn1c(C(=O)Nc2ccccc2)cc2ccccc21	2.24	-0.03
Cc1ccc(S(=O)(=O)N2CCN(C(=O)CN3C(=O)NC4(CCOc5ccccc54)C3=O)CC2)cc1 (stereo unspecified)	1.09	-0.87
COC(=O)c1cnn(-c2nc(OC)cc(OC)n2)c1C	0.96	-0.24
CC(C)C(=O)N1N=C2CCCCC2C1(O)C(F)(F)F (stereo unspecified)	0.24	0.55
CC(C)c1ccc(C(=O)N2CCN(c3cnn(C)c(=O)c3Cl)CC2)cc1	0.26	-3.16

4 entries already listed, arranged by molecular weight, smallest number first.
SMILES	KCNQ2 pot	KCNQ2 pot baseline
CC(NS(=O)(=O)/C=C/c1ccccc1)C(=O)O (stereo unspecified)	0.08	0.85
COC(=O)c1cnn(-c2nc(OC)cc(OC)n2)c1C	0.96	-0.24
CN(C)CCn1c(C(=O)Nc2ccccc2)cc2ccccc21	2.24	-0.03
CC(=O)c1cccc(OCc2cc(C(=O)N3CCSCC3)no2)c1	3.87	-0.04

(cont.)
SMILES	KCNQ2 pot	KCNQ2 pot baseline
COc1cccc(C(=O)Nc2nnc(C(C)C)s2)c1	1.57	-0.61
O=C(COc1ccccc1)Nc1ncc2c(n1)CCCC2=O	0.67	0.88
Cn1ncc([N+](=O)[O-])c1C(=O)NC1CCCCC1	0.15	-2.76
COc1cc(C(=O)c2ccccc2Cl)c([N+](=O)[O-])cc1OC	0.16	0.06
COc1cc(/C=C/c2cc(OC(C)=O)c3ccccc3n2)c(OC(C)=O)c([N+](=O)[O-])c1	0.74	-1.8
O=c1cc(CN2CCN(C/C=C/c3ccccc3)CC2)c2cc(O)c(-c3ccccc3)cc2o1	0.92	-0.26
COc1ccc(NC(=O)c2cccc(N3C(=O)C4C5C=CC(C6CC56)C4C3=O)c2)c(OC)c1 (stereo unspecified)	0.18	1.6
Nc1c(N(CCO)C(=O)/C=C/c2ccco2)c(=O)[nH]c(=O)n1Cc1ccccc1	1.15	0.36
Cc1noc(C)c1COc1cccc(C(=O)Nc2ccc3c(c2)OCO3)c1	1.5	-1.04
O=C(O)Cc1ccc2ccc3ccccc3c2c1	0.75	0.21
O=C(CN1CCN(S(=O)(=O)c2ccc(F)cc2)CC1)Nc1ccc2c(c1)OCO2	0.07	-1.3
COc1cc(CCC(=O)OCC(=O)Nc2ccc(C(N)=O)cc2)cc(OC)c1OC	0.04	-0.41
O=C(CN1CCCCC1)Nc1ccc(NC(=O)c2ccc(Cl)cc2)cc1Cl	0.01	-1.67
C=C(C)C(=O)Nc1cccnc1Oc1ccc(F)cc1F	1.28	0.96
CCOc1ccc(Cc2nnc(SCC(=O)c3ccc(OC)cc3)o2)cc1	0.59	0.33
COc1ccc(CNC(=O)Cn2nc(C(F)(F)F)c(Br)c2C)cc1	1.73	-0.87
CC(NC(=O)c1ccc(Br)cc1)c1ccccc1 (stereo unspecified)	2.61	0.42
Cc1ccccc1N1CCN(C(=O)c2ccccc2NC(=O)C2CC=CCC2C(=O)O)CC1 (stereo unspecified)	0.77	1.04
N#Cc1sc(NCc2cccc(Cl)c2)nc1Cl	0.08	0.24
COc1ccc(C(=O)NNC(=O)C(=O)NC(C)c2ccccc2)cc1OC (stereo unspecified)	1.09	-1.39
Cc1c(C(N)=O)sc2ncn(CC(=O)N3CCC(C)CC3)c(=O)c12	0.15	0.81
Cc1ccc(C(=O)N(Cc2cccnc2)Cc2cc3cc(C)ccc3n3nnnc23)cc1	0.6	0.43
O=C(c1ccco1)N1CCN(C(=O)c2ccccc2NS(=O)(=O)c2ccc(F)cc2)CC1	0.14	-0.08
CCOCCc1nnc(NC(=O)CS(=O)(=O)Cc2ccccc2)s1	0.87	-0.05
O=C(CCc1ccccc1)Nc1nnc(-c2ccccn2)o1	0.28	1.56
O=C(O)CSc1nnc(-c2ccc3c(c2)OCO3)n1-c1ccccc1	1.23	1.39
O=C(CN1CCN(c2ccc([N+](=O)[O-])cc2)CC1)Nc1ccccn1	0.34	-1.7

Source: PubChem BioAssay
